Assay outcomes from PubChem.
Vaccinia Venus – inhibitors of vaccinia virus (Venus reporter); Vaccinia virus Venus reporter expression, fluorescence; Potency, µM (titrated, usually from 36.5 µM), inactives show at the top dose activity change, negative = inhibition, usual class: inhibitors; 330,000 compounds, 0.46% hits; active means well fitted inhibition curve with a large enough effect; inconclusive means small, poorly fitted or top-dose-only effect; inactive means no such curve, though single readings can be large or run the other way; tested in A549 cells; also: nearly all actives have a fitted effect of over 30% in size; inactives centre near -10
VACV mCherry inh – vaccinia inhibition (mCherry reporter); Vaccinia virus mCherry reporter infection, fluorescence; about a quarter of the inactives have no number; Potency, µM (doses to about 36.5 µM), for inactives: at the top dose activity change, negative = inhibition, most hits filed as inhibitors; 310,000 compounds, 0.63% hits; active = well fitted inhibition curve with a large enough effect; inconclusive = small, poorly fitted or top-dose-only effect; inactive = no such curve, though single readings can be large or run the other way; tested in A549 cells; also: nearly all actives have a fitted effect of over 35% in size; inactives centre near -10
The depositor's hits bear a star; i = inactive; ? = inconclusive; / = no result given; & = joins results of further samples; [ ] = another dose, or the depositor's remark. % is scaled to controls: 0 for no effect and ±100 for the full control effect; potency is read from the fitted curve at half-maximal effect.

SMILES	Vaccinia Venus	VACV mCherry inh
O=C(C1CCN(Cc2cn[nH]c2-c2ccc(F)cc2F)CC1)N1CCOCC1	-5%	-11%
Nc1nc(NCc2c(F)cccc2Cl)nn1-c1ccccc1	-22%	?
COCCn1c(SCC(=O)Nc2ccc(F)cc2F)nc2c(c1=O)SCC2	-7%	-6%
CC1=C(C#N)C(Nc2cccc(C)n2)(C(F)(F)F)C(=O)N1 (configuration not stated)	-1%	-8%
CN(C)c1ccc(/C=C/c2cccc3ccccc23)cc1	7%	-11%
O=C(c1cccn1-c1nnc(N2CCCCC2)s1)N1CCN(c2ccccc2)CC1	4%	-4%
CCN(CC)CCN(C)C(=O)c1[nH]c(C(F)(F)F)nc1-c1ccccc1	0%	29%
COc1ccc(-n2c(-c3ccco3)nc3c(cnn3-c3ccc(C)cc3)c2=O)cc1	-25%	?
COc1ccccc1-c1nc(SCC(=O)N2CCC(C(N)=O)CC2)n[nH]1	0%	-11%
COc1cc(-c2ccno2)ccc1S(=O)(=O)N1CCN(c2ccccc2F)CC1	-16%	-11%
CCOc1ccc(NC(=S)NC(=O)c2ccco2)cc1	-6%	-1%
O=C(Nc1ccc(Br)cn1)c1cccc(C(=O)Nc2ccc(Br)cn2)c1	-10%	-22%
COc1ccc(-c2c(C#N)c(SCC(=O)Nc3ccccc3C)nc(C)c2C(=O)Nc2ccc(Cl)cc2)cc1	-10%	-12%
COC(=O)c1ccc(CSc2nnc(CNC(=O)COc3ccc(Cl)cc3)o2)o1	-13%	-4%
COc1ccc([C@@H]2[C@@H]3C(=O)N(C(C)(C)C)C(=O)[C@@H]3[C@]3(C)C(=O)N(c4cccc(F)c4)C(=O)N23)cc1	2%	i
c1ccc(-c2cn3c(n2)-c2ccccc2C3)cc1	-26%	-13%
CC(=O)c1cc(C(=O)Nc2cc(C)cc(C)c2)c2ccccn12	-8%	-9%
CCCOC(=O)C(C)n1c(-c2ccccc2)nc2ccccc2c1=O (configuration not stated)	0%	?
CC(C)n1cc(CN2CCC(Oc3ccc(C(=O)N4CCCC4)cc3)CC2)cn1	-12%	-16%
CC1CC(C)CN(C(=O)CCc2nnc3ccc(N4CCCCC4)nn23)C1 (configuration not stated)	1%	-16%

Part of the list above, with values under each structure:
Value order: Vaccinia Venus, VACV mCherry inh
CC1=C(C#N)C(Nc2cccc(C)n2)(C(F)(F)F)C(=O)N1 (configuration not stated)
 : -1%, -8%
COC(=O)c1ccc(CSc2nnc(CNC(=O)COc3ccc(Cl)cc3)o2)o1
 : -13%, -4%

Next entries:
SMILES	Vaccinia Venus	VACV mCherry inh
CNc1nc(SC(C)C(=O)Nc2ccc(Cl)c(Cl)c2)nc(N2CCOCC2)n1 (configuration not stated)	1%	-1%
CCOc1ccc(NC(=O)CSc2nc3ccccc3c(=O)n2CCC(=O)NC2CCCCC2)cc1	-1%	-7%
O=C(NCc1cccs1)c1cc(-c2cccs2)on1	-7%	-18%
CCOC(=O)Cc1csc(N/N=C\c2cccc(Br)c2)n1	-20%	?
CCOC(=O)Cn1c(=O)oc2cc(S(=O)(=O)N(C)Cc3ccco3)ccc21	-2%	-11%
CCn1cc(CN2CCCC(C(=O)Nc3ccc(-c4cscn4)cc3)C2)c(C)n1 (configuration not stated)	-19%[7.34 µM]	-4%[7.34 µM]
O=c1[nH]cc(C=NNc2ccccc2)c(=O)[nH]1	-1%	1%
COc1ccc([C@H]2/C=C\CN(S(=O)(=O)c3ccc(C)cc3)[C@@H](C)C(=O)N2Cc2ccc(F)cc2)cc1	-22%	?
CCOC(=O)C1(Cc2ccccc2C(F)(F)F)CCN(C(C)CCn2cccn2)CC1 (configuration not stated)	-15%	-4%
CCNc1sc(C(=O)c2cccs2)c(N)c1C#N	?	/
COc1cc(C(=O)NNC(=O)c2ccco2)cc(OC)c1OC	-8%	-2%
COC(=O)c1ccccc1NC(=O)/C=C/c1cc(OC)c(OC)c(OC)c1	1%	/
O=C(Nc1nc2c(Br)cccc2s1)C1CC1	?	?
O=C(Oc1c(CN2CCOCC2)cc(Cl)c2cccnc12)c1ccccc1Cl	5.6µM*	3.5µM*
CC(C)NC(=O)c1ccccc1NC(=O)C(C)Oc1ccccc1 (configuration not stated)	-9%	-8%
Cc1cc(N=Nc2ccc(C)c(N=Nc3cc(C)c(N)cc3N)c2)c(N)cc1N	-24%&-3%	-11%&-3%
Cn1nnnc1SCC(=O)Nc1nc2c(s1)CCCC2	-15%	-1%
CCOC(=O)c1c(N2C(=O)C3C4C=CC(C4)C3C2=O)sc2c1CCC(C)C2 (configuration not stated)	-2%	-7%
COc1ccc(C)cc1NC(=O)C(OC(=O)c1ccc(Cl)c(S(=O)(=O)N(C)c2ccccc2)c1)c1ccccc1 (configuration not stated)	-4%	-2%
O=C(c1ccc(-c2cccc(C(F)(F)F)c2)o1)N1CCOCC1	?	/

Part of the list above in order of length of the SMILES, smallest number first:
SMILES	Vaccinia Venus	VACV mCherry inh
CCNc1sc(C(=O)c2cccs2)c(N)c1C#N	?	/
COc1cc(C(=O)NNC(=O)c2ccco2)cc(OC)c1OC	-8%	-2%
COC(=O)c1ccccc1NC(=O)/C=C/c1cc(OC)c(OC)c(OC)c1	1%	/

The listing continues:
SMILES	Vaccinia Venus	VACV mCherry inh
CN(C)/C=N/C(=S)Nc1ccc(Cl)cc1Cl	-9%	-25%
O=C(c1cccc([N+](=O)[O-])c1)N1CCN(c2ccc(Cl)cc2)CC1	-14%	-24%
COc1ccc(CNC(=O)N2CCN(S(=O)(=O)c3ccc(C)cc3C)CC2)cc1	-23%	-23%
CC1Cc2ccccc2N1C(=O)C1CCCN(S(=O)(=O)c2cccc3nsnc23)C1 (configuration not stated)	?	?
CC1CCC2(CC1)NC(=S)N(C(C)(C)C)N2 (configuration not stated)	6%	i
Cn1c(Oc2cccc(Cl)c2)nc2c1c(=O)n(Cc1ccccc1Cl)c(=O)n2C	11%	0%
O=C1OC[C@@H]2CCCN2C(=O)[C@@H](CC(=O)N(CCO)Cc2ccccc2)C/C=C\C[C@H]1Cc1ccc(F)cc1	-28%	-10%
CC(C)CC(NC=C1C(=O)OC(C)(C)OC1=O)C(=O)O (configuration not stated)	-23%	i
Cc1ccc(CSCCC(=O)NCCC2=CCCCC2)cc1	-1%	i
O=C(Nc1cccc(C(F)(F)F)c1)Nc1ccc(N2CCCC2)c(S(=O)(=O)Nc2ccccc2Cl)c1	11µM*	11µM*
Cc1ccc2cc(CCNC(=O)Cc3cccs3)c(=O)[nH]c2c1	-17%	-22%
CC(=O)Nc1ccc(NC(=O)C/C(C)=N/NC(=O)c2cccc3ccccc23)cc1	-18%	?
CC(C)n1c(=O)[nH]c(=O)n1C(C)C	-1%	-14%
Nc1nc(CSC(=S)N2CCOCC2)nc(Nc2ccccc2)n1	-21%	-27%
COc1ccc(NC(=O)C2Cc3ccccc3CN2C(=O)c2ccco2)cc1 (configuration not stated)	-9%	-14%
COc1ccc2c(c1)NC(c1ccc(OCC(C)C)cc1)=NC(c1ccncc1)=N2	-16%	-7%
Cc1ccc(F)cc1NC(=O)COC(=O)C1CCN(c2ccc(C(F)(F)F)cn2)CC1	-13%	i
CCc1ccccc1NC(=O)CSc1nc2ccccc2n1CC(=O)N1CCCC1	-20%	/
O=C(c1cccc(-c2cccc3nccn23)c1)N1CCOCC1	6%	1%
CC(=O)N/C(=C/c1ccccc1)C(=O)NC(Cc1ccccc1)C(=O)O (configuration not stated)	-4%	-8%
Cc1cc(C)c2sc(NC(=O)c3ccc(S(=O)(=O)N4CCOCC4)cc3)nc2c1	-15%	-14%
COc1ccc(C2=NN(S(C)(=O)=O)C(c3ccc4nccnc4c3)C2)cc1 (configuration not stated)	-7%	-10%
N#Cc1nc(COc2cccc(Cl)c2)oc1NCCc1ccccc1	-7%	-2%
CCOc1ccc(NC(=O)CCCN2C(=O)C(c3ccccc3)Oc3cccnc32)cc1 (configuration not stated)	-6%	-3%
Cc1cccc(NC(=O)c2ccc(COc3ccccc3)o2)n1	-5%	i
O=C(Nc1cccc([N+](=O)[O-])c1)c1cnccn1	-7%	-11%
CC(C)n1c(SCC(=O)Nc2ccccc2)nc2c1c(=O)n(C)c(=O)n2C	-15%	/
COc1ccc(-c2c(-c3ccc(OCC(=O)NN)cc3O)n[nH]c2C)cc1	-21%	?
Cn1c(N2CCOCC2)c(C#N)c2ccccc21	-15%	10%
Cc1ccccc1NC(=O)CCN1CCN(CCO)CC1	-11%	-4%
Cc1ccccc1CN1C(=O)c2ccccc2C1c1nnnn1C(C)C (configuration not stated)	4%	27%
O=C(CSCc1cccc(Cl)c1)OCc1nc2ccsc2c(=O)[nH]1	-9%	-16%
O=C1CSCN1c1cc(Cl)ccc1Cl	0%	-9%
CS(=O)(=O)c1cccc(-c2nnc(NC(=O)C3=COCCO3)o2)c1	6%	i
CC(C)(C)NC(=O)Cn1cc(S(=O)(=O)Cc2ccccc2Cl)c2ccccc21	-14%	-14%
CNC(=S)N1N=C(c2ccc(C)cc2)CC1c1ccc(N(C)C)cc1 (configuration not stated)	-7%	i
Nc1nnnn1CC(=O)N/N=C/c1ccccn1	-8%[7.34 µM]	i[7.34 µM]
OCCN1CCN(Cc2ccc3c(c2)CN(Cc2ccc4ccccc4c2)CCO3)CC1	10%	-11%
O=C(CN1CC(=O)Oc2ccccc21)OCC(=O)c1ccccc1	-7%	-7%
O=C(NCCc1ccccc1)c1ccc(-n2cnnn2)cc1	-15%	-11%
COc1cc2c(cc1OC)C(C(=O)N(C)Cc1ccccc1)C(c1cccnc1)N(C)C2=O (configuration not stated)	-21%	-1%
CC1(O)CCC2C3CCC4=CC(=O)CCC4(C)C34OC4CC21C (configuration not stated)	-11%	i
CCC1C(=O)NCCN1Cc1nc(-c2ccc(C)s2)oc1C (configuration not stated)	-21%	i
COc1ccccc1-n1nc(-c2ccccc2)c2cnc3c(F)cc(F)cc3c21	-11%	-8%
O=C(c1ccc(N2C(=O)C3CCCCC3C2=O)cc1)N1CCCCC1 (configuration not stated)	-19%	i
CCCn1c(=O)c(C(=O)NNC(=O)c2cccc([N+](=O)[O-])c2)c(O)c2ccccc21	-7%	-17%
COc1cc(OC)cc(C(=O)NCC(=O)OCc2csc(-c3ccccc3)n2)c1	-4%	-13%
Cc1nnc(-c2cnn(C)c2N)n1Cc1cccc(Cl)c1	5%	-8%
Cc1nc2ccccc2c(=O)n1-c1ccc([N+](=O)[O-])cc1	3%	13%
COCCNC(=O)C1CCCN(Cc2ccc(C)cc2)CC1 (configuration not stated)	-6%	0%
COc1cc(S(=O)(=O)Nc2cccc(C)c2)ccc1NC(=O)c1cccnc1	-26%	-9%
Cc1c(Cl)cccc1NC(=S)N(CCCN1CCOCC1)Cc1cccs1	-18%	-29%
CCCCOc1ccc(N(CC(=O)NC2CCCC2)C(=O)CCC(=O)Nc2ccccn2)cc1	2%	-13%
Cc1cnc(-n2ncc(C(=O)NCCc3ccccn3)c2C)nc1-c1ccc(F)cc1	-8%	-23%
CN(C)C(=O)OCC1COc2ccccc2O1 (configuration not stated)	0%	-9%
COCCSc1nc(N)c2c3c(sc2n1)CN(C)CC3	-17%	-9%
O=C(Cn1nnc(-c2ccccc2Cl)n1)Nc1ccc(Br)cc1	-7%	-6%
CCOC(=O)c1cnc2c(Cl)c(Cl)ccc2c1NCCN1CCOCC1	-1%&3%	-3%
CC(=O)c1ccc(N2CCN(c3ccc(C(F)(F)F)cn3)CC2)cc1	-4%	-17%
c1ccc(OCCOc2cccc3cccnc23)cc1	-22%	-22%

Exported with each value named: 3 of the compounds above
CCC1C(=O)NCCN1Cc1nc(-c2ccc(C)s2)oc1C (configuration not stated)
  Vaccinia Venus = -21%	VACV mCherry inh = i

COc1ccccc1-n1nc(-c2ccccc2)c2cnc3c(F)cc(F)cc3c21
  Vaccinia Venus = -11%	VACV mCherry inh = -8%

O=C(c1ccc(N2C(=O)C3CCCCC3C2=O)cc1)N1CCCCC1 (configuration not stated)
  Vaccinia Venus = -19%	VACV mCherry inh = i

More results:
SMILES	Vaccinia Venus	VACV mCherry inh
O=C1Oc2ccccc2C2(O)C3CCCCCC3C12 (configuration not stated)	-26%	/
c1ccc(N2CCN(c3nc4ccccc4n4cnnc34)CC2)cc1	-11%	?
O=c1oc2cc(O)ccc2cc1-c1nc2c(s1)CCc1ccccc1-2	16%	-6%
Cc1cc([N+](=O)[O-])nn1CC(=O)NCc1ccco1	-13%	-8%
COc1ccc(C(=O)Nc2ccc(-n3nncc3-c3ccccc3)cc2)cc1OC	-12%	-2%
CCOc1ccccc1N1CCN(C(=O)c2cc[n+]([O-])cc2)CC1	-21%	-17%
Cc1ccc(CNC(=O)c2sccc2-n2cccc2)cc1	-6%	-11%
O=C(O)C1CSC(c2ccc(O)c([N+](=O)[O-])c2)N1 (configuration not stated)	5%	4%
CN(C)/C=C1\C(=O)NN=C1C(F)(F)F	-2%	i
CC1CN(C(=O)c2ccc3c(c2)OCO3)CC(C)O1 (configuration not stated)	0%	-10%
CN(C)CC(O)COc1ccc(C(C)(C)c2ccc(OCC(O)CN(C)C)cc2)cc1 (configuration not stated)	-15%	-14%
Cn1c(=O)[nH]c2ccc([N+](=O)[O-])nc21	-4%	i
CCCOC(=O)Nc1ccc([As](=O)(O)O)cc1NC(=O)OCCC	-19%	i
O=C(O)C1CCN(C(=O)COc2ccc3c4c(c(=O)oc3c2)CCC4)CC1	-5%	-9%
CCOC(=O)CSc1nc2ccccc2c(=O)n1Cc1ccco1	-15%	-5%
O=c1c(-c2n[nH]c(=S)o2)cccn1Cc1ccccc1	-13%	i
